# HIV TAR-Tat: HIV-1 TAR-Tat binding disruption; 0.6% of 100,000 active; HIV-1 TAR RNA, Tat peptide displacement FRET; stronger effect = higher value; z-score (concentration not given with the values);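 also: score is relative to mean and SD of negative controls; some compounds called inactive have numbers as strong as hits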
# CDC25B CDK2 inh: human CDC25B-CDK2/CyclinA binding inhibition; P30305+P24941; HTRF CDC25B-CDK2/CyclinA binding, anti-His/anti-Flag; stronger effect = higher value; z-score (concentration not given with the values); 0.72% of 94,000 active; AID 1259370;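 also: score is relative to mean and SD of negative controls; strong numbers were not always called active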
# * hit, by the source's call; x = no result given.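 The calls were made as follows: active = z-score from 3 up in half or more of its runs; inactive = the rest.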
SMILES,HIV TAR-Tat,CDC25B CDK2 inh
Cc1cc2oc(C(=O)Nc3sc4c(c3C(=O)NCc3cccnc3)CCCC4)cc(=O)c2cc1C,-6.72,0.22
COCCNCCn1cnc2c1c(=O)[nH]c(=O)n2C,-0.52,1.32
O=C(CCc1nc2ccccc2[nH]c1=O)OCc1ccc(Cl)cc1,3.22,-0.94
CCOC(=O)C1CCN(C(=O)C2CCCN(S(=O)(=O)c3ccc4c(c3)oc(=O)n4C)C2)CC1 (configuration not stated),0.92,-1.19
COc1ccc2c(c1)CCc1c-2n[nH]c1C(=O)N1CCC(CCN2CCOCC2)CC1,0.96,x
O=C(Nc1nnc(C2CC2)s1)C(F)(F)F,x,-0.71
O=C(CSc1ncnc2ccccc12)N1CCCC1,x,-3.49
COCCNc1nc2ccccc2c2nc(-c3cccnc3)nn12,-1.55,-1.13
O=c1cc(CSC2=NS(=O)(=O)c3ccccc3N2)nc2ccccn12,0.94,x
N#Cc1c[nH]n2c(NC3CCCCC3)c(-c3cccc(Cl)c3)nc12,-0.02,-1.08
CC(=O)Oc1ccc(-c2nc3ccc(C(=O)O)cc3s2)cc1,2.59,-1.64
CCCSCCCNC(=O)CN1C(=O)CCn2nc(C)cc21,1.97,x
CC1CC(C)CN(C(=O)Cn2c(=O)oc3cc(S(=O)(=O)N4CC(C)CC(C)C4)ccc32)C1 (configuration not stated),0.55,1.5
COc1ccc2c(=O)c(Oc3cc(C)ccc3C)coc2c1,0.35,-0.37
Cc1ccc2nc(-c3ccc(C)o3)c(Nc3ccc4c(c3)OCCO4)n2c1,x,0.41
O=C1N=C(O)CN1/N=C/c1ccc(-c2ccc([N+](=O)[O-])cc2)o1,0.5,x
O=C(Cn1ncc2c3ccccc3n(Cc3ccccc3)c2c1=O)NCc1ccccc1,-1.83,-0.61
CC1CCC(NC(=O)c2cc(-c3ccco3)[nH]n2)CC1 (configuration not stated),-6.96,x
Cc1nn(C)c(C)c1CNC(=O)NC(C)C,1.93,x
CCN(CC)S(=O)(=O)c1ccc2c(c1)N(CC(=O)NC1CC1)C(=O)CO2,-0.19,-0.61
Cc1cccc(C)c1NC(=S)N1CC(C)OC(C)C1 (configuration not stated),x,-1.76
O=C(CSc1nccn(-c2cccc(F)c2)c1=O)c1ccccc1,-0.15,x
COc1ccc2nc(NC(=O)CN(C)S(=O)(=O)c3cccs3)sc2c1,x,-1.93
O=c1c(-c2ccc(Cl)cc2)c(N2CCN(Cc3ccccc3)CC2)c1=O,1.03,x
O=C1c2[nH]nc(-c3ccccc3O)c2C(c2cccc(OCc3ccccc3)c2)N1CCO (configuration not stated),1.88,-1.72
OC(COc1ccc(F)cc1)CN1CCN(Cc2c(F)cccc2Cl)CC1 (configuration not stated),x,0.02
Cc1nnc(N2CCCC2)c2c1nnn2Cc1ccc(F)cc1,0.85,0.03
O=[N+]([O-])c1ccsc1Oc1ccc(Cl)cc1Cl,x,-0.71
Cn1cc(S(=O)(=O)N2CCOCC2)cc1C(=O)NC1CCCc2ccccc21 (configuration not stated),1.78,x
O=C(Nc1nnc(SCc2nc3ccccc3[nH]c2=O)s1)C1CCCCC1,-8.83,x
CCOC(=O)C1(CCC#N)C(=O)C=C(c2ccc(OC)cc2)CC1c1ccc2ccccc2c1 (configuration not stated),x,-1.86
COc1ccc(CC(CC(=O)O)C(=O)O)cc1 (configuration not stated),-11.1,0.35
Clc1ccc(N2CCCC3CCCCC32)nn1 (configuration not stated),1.84,-1.32
CCCCN(C)c1ncnc2c1cnn2-c1ccc(C)cc1,1.38,x
Cc1cc(SCC(=O)O)n2nc(C)nc2n1,-0.15,0.32
CCOc1ccc(-c2n[nH]c3c2C(c2cccnc2)N(c2ccc(Br)cc2)C3=O)cc1 (configuration not stated),0.48,x
CCn1cc(C2=NOC(C(=O)N3CCN(c4ccccc4)CC3)C2)c(C)n1 (configuration not stated),0.43,-1.51
Cc1nc(Cl)c2c(C)c(C)n(-c3ccc(F)cc3)c2n1,1.4,-2.38
CCOc1ccc2c(c1)C(OC(C)=O)C(C)(C)C(c1ccc(Br)cc1)N2 (configuration not stated),-2.67,-0.55
CCOC(=O)/C(C#N)=C(\Nc1ccc(OC)cc1)SC,x,-2.82
CCCCN1C=C(OC(=O)c2ccccc2)c2ccccc2S1(=O)=O,0.64,-1.64
CC(C)/C(=N/O)c1ccccc1,x,0.83
O=C(CSCCc1ccccn1)Nc1ccc(Cl)cn1,1.69,x
CN(Cc1ccco1)C(=O)C1CCCN(c2ncnc3c2nc2n3CCCCC2)C1 (configuration not stated),0.91,x
O=c1[nH]c(SCCc2ccccc2)nc2c1CCC2,0.92,-0.47
Cc1cccc(C(=O)Nc2cc(C#N)c3sc4ccccc4n3c2=O)c1,0.7,-0.58
CC1CCCN(C(=O)Nc2cn(C)c(=O)c3ccccc23)C1 (configuration not stated),-0.66,x
CCOc1ccccc1C1C(C#N)=C(N)Oc2n[nH]c(-c3ccc4c(c3)OCO4)c21 (configuration not stated),0.81,-3.18
C=CCSc1nc2c(c(=O)[nH]1)C(c1cccc(C)c1)C(C(=O)OCC)=C(C)N2 (configuration not stated),1.29,-1.09
Cc1nnc(SCc2ccc(C(=O)O)cc2)s1,0.37,0.47
# The results go on.
SMILES,HIV TAR-Tat,CDC25B CDK2 inh
Clc1ccc(COc2ccc(-c3noc(C4CC4)n3)cc2)cc1,x,-0.93
Cc1cccc(C)c1OCc1cc(=O)n2ccsc2n1,-0.23,0
CCOCCc1nn2c(=O)cc(COC(=O)c3ccc(OC)cc3)nc2s1,-0.19,x
Cn1ccnc1Sc1nc2c(c(=O)n(C)c(=O)n2C)n1C,x,-0.42
O=C(CSc1ncnc2c1nnn2-c1ccc(F)cc1)N1CCCCCC1,x,1.97
COc1cccc(-c2noc(N(C)Cc3ccccc3)n2)c1OC,1.5,x
Cc1ccccc1N1C(=O)CSC12C(=O)Nc1ccccc12 (configuration not stated),x,-1.89
Cc1ccnc(NS(=O)(=O)c2cc(-c3cc(C)no3)ccc2C(C)C)c1,0.09,x
Fc1ccccc1CNCc1ccc2c(c1)OCO2,-0.95,-2.11
Nc1cccc(N2C(=O)c3ccccc3C2=O)n1,x,-0.42
CC(C)c1ccc(N2C(=O)N3CCCN3C2c2ccccc2F)cc1 (configuration not stated),-0.59,-1.61
O=C(Nc1ccc(Cl)cc1)Nc1nnc(CC(=O)N2CCOCC2)s1,1.55,x
Cc1cc(C)cc(NS(=O)(=O)c2cc3[nH]c(=O)c(=O)[nH]c3cc2C)c1,1.09,x
Cc1ccc2c(c1)c(C)c(C)n2CC(O)CN1CCCCC1C (configuration not stated),1.8,-0.44
CCn1c(NCc2ccncc2)nc2ccccc21,0.22,-0.85
Cc1nc(N(C)C)ncc1C(=O)NC1CCCCC1,2.09,x
COc1ccccc1Nc1ncnc2ccccc12,x,-0.87
CCc1nn(CC(=O)NCCCN(CC)CC)c(=O)c2cc3sc(C)cc3n12,1.57,-0.13
COc1c(O)cc(O)c2c(=O)cc(-c3ccccc3)oc12,2.12,x
O=C(O)/C=C/C(=O)OCC(Cl)=C(Cl)Cl,x,2.07
CCOC(=O)CC(C)=Nc1cnn(-c2ccccc2)c1,x,1
CC(C)C[C@H](NC(=O)[C@H](O)[C@H](N)Cc1ccccc1)C(=O)O,x,-1.79
COc1cccc(N2Cc3ccccc3C2)c1,-3.34,-0.09
COc1ccc(S(=O)(=O)NCCSCc2ccco2)cc1,-0.73,-1.62
O=C(Nc1ccc2c(c1)OCCO2)NC(c1ccc(F)cc1)c1nnc(-c2ccccc2)o1 (configuration not stated),0.91,x
Cn1c(=O)n(C)c2cc(CNCc3ccc(F)cc3)ccc21,-0.46,-0.9
Nc1ncnc2c1nc(Br)n2CC(O)CO (configuration not stated),x,-1.65
COc1ccc(OCCSc2nc3c(c(=O)[nH]2)CCCC3)cc1,1.15,1.16
O=C(NCCCN1CCCC1)c1cnn(-c2ccc(F)cc2)c1-n1cccc1,1.77,x
COc1ccc(OC)c(NC2c3ccccc3C(=O)N2c2ccc(Cl)cc2)c1 (configuration not stated),0.04,-1.49
Cc1ccc(CNc2c3c(nc4nncn24)CCC3)cc1,1.72,-0.07
COc1ccc(-c2nnc3ccc(SCC(=O)c4ccccc4)nn23)cc1OC,x,-0.52
Cc1ncc(-c2ccc(C)c(S(=O)(=O)NCc3ccccc3)c2)o1,0.3,x
Cc1nc2nc(C)c(CCC(=O)N3CC(C)CC(C)C3)c(C)n2n1 (configuration not stated),0.67,-1.55
CCCCCCCCc1cnc(-c2ccc(OCCCCCC)cc2)nc1,x,-1.54
CCCCCc1nc2ccccc2[nH]1,1.02,-0.03
CCOC(=O)c1c(C)oc2ncnc(NCCN3CCCC3)c12,2.11,x
COc1cc2ncc(S(=O)(=O)c3ccc(C)c(C)c3)c(N3CCN(C)CC3)c2cc1OC,1.22,-1.63
O=C(Nc1cccc(O)c1)C1CC(c2cccc(Br)c2)=NO1 (configuration not stated),-0.18,0.49
Cc1noc(C)c1S(=O)(=O)N1CCC(c2ccncc2)CC1,0.92,x

# An excerpt from above in order of formula weight, ascending.
SMILES,HIV TAR-Tat,CDC25B CDK2 inh
Cc1ccc(CNc2c3c(nc4nncn24)CCC3)cc1,1.72,-0.07
Cc1nc2nc(C)c(CCC(=O)N3CC(C)CC(C)C3)c(C)n2n1 (configuration not stated),0.67,-1.55
Cc1ncc(-c2ccc(C)c(S(=O)(=O)NCc3ccccc3)c2)o1,0.3,x

# Next records follow:
SMILES,HIV TAR-Tat,CDC25B CDK2 inh
CC(C)CN(CC(C)C)S(=O)(=O)c1ccc(-c2ccc(=O)[nH]n2)s1,0.78,x
O=C(O)COCC(=O)NCc1c(F)cccc1Cl,x,-2.54
COC(=O)Cn1cc(C(=O)C2CCCCC2)c2ccccc21,13.4,-0.97
Cc1ccc(CNC(=O)CCS(=O)(=O)c2cc(Br)cc3c2N(C(=O)C2CC2)CC3)o1,1.77,1.47
CCN(CC)S(=O)(=O)c1ccc2c(c1)CC(C(=O)NCCC(C)C)N2C(C)=O (configuration not stated),2.68,x
COc1ccc(-c2cc(C(F)(F)F)n3nc(C(=O)O)c(Cl)c3n2)cc1OC,2.34,-2.06
COc1cc(CN2CCN(Cc3ccc4c(c3)OCO4)CC2)cc(OC)c1OC,x,1.13
Cc1nc(-c2csc(S(=O)(=O)Nc3ccc(Br)c(C)c3)c2)no1,0.85,x
CC1CN(CC(=O)O)c2ccccc2S1 (configuration not stated),0.36,x
Cn1cc(NC(=O)Nc2ccc(F)cc2)c2ccccc2c1=O,1.14,x
COc1cccc2c1OC(C(C)C)N1N=C(c3ccccc3O)CC21 (configuration not stated),-0.08,0.42
Cc1oc(-c2cccc(Cl)c2)nc1CSc1nnc(C)n2c1cc1sccc12,0.6,x
Cn1c(=O)c2c3c(sc2n2c(SCC(N)=O)nnc12)CCCC3,x,-0.4
CCOCCc1nn2c(=O)cc(COC(=O)c3ccc4c(c3)OCO4)nc2s1,-0.82,x
CCC(CC)C(=O)Nc1nonc1-c1ccc(Br)cc1,1.17,1.21
COc1ccc(-c2nc(C#N)c(N3CCC(C)CC3)o2)cc1,0.27,-0.94
COc1ccc(C(=O)CC2(O)C(=O)Nc3ccc(Cl)cc32)c(OC)c1 (configuration not stated),0.1,0.58
Cc1csc(NC(=O)CSc2nccn2Cc2ccc3c(c2)OCO3)n1,-4.85,x
Nc1cnccc1C(F)(F)F,x,-2.46
CC(C)CCNC(=O)C1(C)CCC(=O)N1CCCN1CCCC1=O (configuration not stated),-0.05,-1.2
O=c1c2ccccc2oc2ccccc12,1.12,x
O=C(CN1C(=O)c2cccc3cccc1c23)NCc1ccccn1,0.42,-0.95
O=C(CSc1ncc(S(=O)(=O)c2ccc(Br)cc2)c(=O)[nH]1)Nc1ccc(F)cc1,-0.77,-2.65
O=C(CN1C(=O)COc2ccc(S(=O)(=O)N3CCCC3)cc21)NCc1ccccn1,x,0.54
Cc1ccc(-c2nc3ccccc3c3nnc(SC(C)C(=O)NCC4CCCO4)n23)cc1 (configuration not stated),0.64,x
COc1cc(CCC(=O)NNC(=S)Nc2ccc(F)cc2)cc(OC)c1OC,x,-0.63
O=C1c2cccnc2C(=O)N1Cc1ccc(S(=O)(=O)Nc2c3c(nc4ccccc24)CCCC3)cc1,1.34,x
CCn1cnc2cc(-c3noc(C(NC(=O)c4ccco4)C(C)C)n3)ccc21 (configuration not stated),0.64,x
CCc1cc2c(cc3n2CC(C)(C(=O)NC2CCCCC2)N(CCN(C)C)C3=O)s1 (configuration not stated),1.55,-0.75
COCCCNc1ncnc2c1sc1nc3c(cc12)COC(C)(C)C3,0.57,x

# Compounds from the list above that contain a Cl atom (16):
SMILES,HIV TAR-Tat,CDC25B CDK2 inh
O=C(CCc1nc2ccccc2[nH]c1=O)OCc1ccc(Cl)cc1,3.22,-0.94
N#Cc1c[nH]n2c(NC3CCCCC3)c(-c3cccc(Cl)c3)nc12,-0.02,-1.08
O=c1c(-c2ccc(Cl)cc2)c(N2CCN(Cc3ccccc3)CC2)c1=O,1.03,x
OC(COc1ccc(F)cc1)CN1CCN(Cc2c(F)cccc2Cl)CC1 (configuration not stated),x,0.02
O=[N+]([O-])c1ccsc1Oc1ccc(Cl)cc1Cl,x,-0.71
Clc1ccc(N2CCCC3CCCCC32)nn1 (configuration not stated),1.84,-1.32
Cc1nc(Cl)c2c(C)c(C)n(-c3ccc(F)cc3)c2n1,1.4,-2.38
O=C(CSCCc1ccccn1)Nc1ccc(Cl)cn1,1.69,x
Clc1ccc(COc2ccc(-c3noc(C4CC4)n3)cc2)cc1,x,-0.93
O=C(Nc1ccc(Cl)cc1)Nc1nnc(CC(=O)N2CCOCC2)s1,1.55,x
O=C(O)/C=C/C(=O)OCC(Cl)=C(Cl)Cl,x,2.07
COc1ccc(OC)c(NC2c3ccccc3C(=O)N2c2ccc(Cl)cc2)c1 (configuration not stated),0.04,-1.49
O=C(O)COCC(=O)NCc1c(F)cccc1Cl,x,-2.54
COc1ccc(-c2cc(C(F)(F)F)n3nc(C(=O)O)c(Cl)c3n2)cc1OC,2.34,-2.06
Cc1oc(-c2cccc(Cl)c2)nc1CSc1nnc(C)n2c1cc1sccc12,0.6,x
COc1ccc(C(=O)CC2(O)C(=O)Nc3ccc(Cl)cc32)c(OC)c1 (configuration not stated),0.1,0.58

# Screening results (PubChem BioAssay)
